VACV mCherry inh = vaccinia inhibition (mCherry reporter); Vaccinia virus mCherry reporter infection, fluorescence; about a quarter of the inactives have no number; 310,000 compounds, 0.63% hits; Potency, µM (titrated, usually from 36.5 µM), without a hit: at the highest dose activity change, negative = inhibition, usual class: inhibitors; active = well fitted inhibition curve with a large enough effect; inconclusive = small, poorly fitted or top-dose-only effect; inactive = no such curve, though single readings can be large or run the other way; tested in A549 cells; further: nearly all actives have a fitted effect of over 35% in size; inactives centre near -10
Vaccinia Venus = vaccinia inhibition (Venus reporter). Vaccinia virus Venus reporter expression, fluorescence. 330,000 compounds, 0.46% hits. Potency, µM (titrated, usually from 36.5 µM), for inactives: top-dose activity change, negative = inhibition, hits mostly inhibitors; active means well fitted inhibition curve with a large enough effect; inconclusive means small, poorly fitted or top-dose-only effect; inactive means no such curve, though single readings can be large or run the other way; tested in A549 cells; further: nearly all actives have a fitted effect of over 30% in size; inactives centre near -10
* = called active by the depositor; i = inactive; ? = inconclusive; / = no result given; & = joins results of further samples; [ ] = remark or other dose. On the % scale 0 is the no-effect control and ±100 the full control effect; potency means the concentration at half of the fitted maximal effect. Outcome played no part in choosing rows; about 0.87% have a hit in one of these screens.

SMILES	VACV mCherry inh	Vaccinia Venus
CCc1ccc(Nc2n[n+](-c3ccccc3)c(-c3cc(OC)c(OC)cc3Br)s2)cc1	?	?
COc1ccc(CN2CCN(CCCc3ccccc3)C(CCO)C2)c(O)c1 (stereo not given)	?	-6.2%
Cc1nc(-c2ccc(Cl)cc2)sc1C1(C)CC(c2cccc([N+](=O)[O-])c2)=NO1 (stereo not given)	-8.4%	-8.0%
CCOc1ccc(CCNC(=O)c2cnc3c(-c4ccc(F)cc4)c(C)nn3c2C)cc1OCC	-15.0%	-17.1%
O=S(=O)(NCC(c1ccc2c(c1)OCO2)N1CCOCC1)c1ccc(Br)cc1 (stereo not given)	-13.6%	-5.5%
CCN1C(=O)CSC1=Nc1ccc(C(=O)OC)cc1	i	-11.6%
CC(=O)NC(CC(C)C)C(=O)O (stereo not given)	i	-11.5%
Cc1ccc(S(=O)(=O)N(C)CC(=O)Nc2ccncc2)cc1	-17.5%	-4.7%
CCOC(=O)c1ccc(NC(=O)CN2C(=O)c3cccnc3Sc3ccccc32)cc1	-4.2%	-13.7%
Cc1ccc(C)c(N2C(=O)c3ccc(C(=O)OCC(=O)c4c(N)n(C)c(=O)n(C)c4=O)cc3C2=O)c1	-7.7%	6.6%
COc1cc(/C=C2\SC(c3ccc(C)cc3)=NC2=O)cc(OC)c1O	-16.9%	-1.5%
O=C(Cn1c(=O)oc2ccccc21)NCCc1ccccc1	-8.5%	-4.8%
CC(NC(=O)c1ccco1)C(c1cccs1)N1CCN(c2ccccc2F)CC1 (stereo not given)	i	-20.0%
COc1ccc(-n2nnnc2C(C2CC2)N2CCC3(CC2)C(=O)NCN3c2ccccc2)cc1 (stereo not given)	i	-16.7%
CC1CCCC(NC(=S)NC(=O)c2ccco2)C1C (stereo not given)	-20.0%	-8.7%
O=C1NC(=Nc2cccnc2)S/C1=C\c1cccc(F)c1	i	14.5%
CCCCCN(C(=O)CCC(=O)OCCOc1cccc(Cl)c1)c1c(N)n(CCCC)c(=O)[nH]c1=O	-9.2%	-6.5%
CCCNC(=O)CN1CCN(c2cc3ccccc3c(Cl)n2)CC1	-19.3%	1.1%
O=c1c(-c2c(O)cc(O)c3c2O[C@H](c2ccc(O)cc2)CC3)c(-c2ccc(O)cc2)oc2cc(O)cc(O)c12	-0.2%	-16.7%
CCOC(=O)c1cc(-c2ccccc2)n(CC(=O)Nc2cccc(OC)c2)c1C	i	-12.4%

One compound at a time (already shown). Order of values: VACV mCherry inh, Vaccinia Venus
Shown for Cc1ccc(C)c(N2C(=O)c3ccc(C(=O)OCC(=O)c4c(N)n(C)c(=O)n(C)c4=O)cc3C2=O)c1 : -7.7%, 6.6%
Shown for O=C(Cn1c(=O)oc2ccccc21)NCCc1ccccc1 : -8.5%, -4.8%
Shown for CCOC(=O)c1ccc(NC(=O)CN2C(=O)c3cccnc3Sc3ccccc32)cc1 : -4.2%, -13.7%
Shown for Cc1ccc(S(=O)(=O)N(C)CC(=O)Nc2ccncc2)cc1 : -17.5%, -4.7%
Shown for CCCNC(=O)CN1CCN(c2cc3ccccc3c(Cl)n2)CC1 : -19.3%, 1.1%

Additional results follow:
SMILES	VACV mCherry inh	Vaccinia Venus
O=c1c2ccccc2nc2n1CCCS2	-17.7%	44.0%[activator]
CCN(CC)c1ccccc1/C=C/[n+]1ccc(CCCCI)c2ccccc21	/	i
CCOC(=O)C(C(=O)OCC)C(=O)c1cccc2ccc3ccccc3c12	i	-11.5%
O=C(NCCCN1CCOCC1)c1ccc(-n2nc(C(F)(F)F)cc2-c2cccs2)cc1	?	?
Cc1c([N+](=O)[O-])ccc(S(=O)(=O)N2CCC(C(N)=O)CC2)c1C	i	-12.5%
CCn1cc(CNc2nc3nonc3nc2N2CCCCC2)cn1	i	-7.7%
COc1ccc(-c2ccc(C(=O)Nc3cccc(C(F)(F)F)c3)c3occc23)c(C)c1	-7.1%	-8.5%
CCOc1ccc(NC(=O)Cc2ccccc2)cc1	-9.0%	-8.1%
COc1ccc(Cl)cc1NC(=O)CN(C)S(=O)(=O)c1ccc(Br)s1	-4.0%	-2.2%
COc1ccc(NC(=S)NC(=O)/C=C/c2cccs2)cc1	i	-12.1%
Cc1nn(C)c(C)c1S(=O)(=O)N(CC(=O)N1CCN(c2ccccc2)CC1)c1ccc(C(C)C)cc1	-14.9%	-15.2%
Cc1nn(CC(=O)NCC(C)c2ccccc2)c(=O)c2cc(-c3ccccc3)nn12 (stereo not given)	-1.7%	-9.5%
CC[C@H]1CN2CCC1C[C@@H]2[C@H](O)c1ccnc2ccc(OC)cc12 (stereo not given in full)	i	-5.0%
O=C(NCc1ccccc1)c1c(Cl)nc(Cl)c(Cl)c1Cl	-9.1%	?
CC(NC(=O)/C(=C/c1ccc2c(c1)OCO2)NC(=O)c1cccc([N+](=O)[O-])c1)C(=O)O (stereo not given)	i	-4.0%
CC(C)C(c1nnnn1C(C)(C)C)N1CCOCC1 (stereo not given)	-10.7%	0.5%
COc1ccc(-c2nnn(CC(=O)NCc3ccc4c(c3)OCO4)n2)cc1OC	-2.6%	-5.9%
NC1=NC(c2cccc(Cl)c2)n2c(nc3ccccc32)N1 (stereo not given)	-20.8%	-13.5%
COc1cccc(NC(=O)C(=O)N/N=C/c2ccc3c(c2)OCO3)c1	-2.8%	-6.3%
COc1ccc(CN2CCNC(=O)C2CC(=O)O)cc1OC (stereo not given)	i	-2.6%
COc1ccc(-c2[nH]ncc2N=Nc2cc(C)cc(C)c2)cc1	?	-29.6%
COc1ccccc1-c1c(C)oc2cc(OCC(=O)OCc3ccccc3)ccc2c1=O	-14.7%	-11.2%
CCO[C@@H]1OC(C(=O)NCc2nc3ccccc3[nH]2)=C[C@H](C)[C@H]1CCCO	-2.1%	-13.2%
O=C(CSCc1c(Cl)cccc1Cl)N1CCOCC1	i	-24.7%
C=CCN(c1ccccc1C(=O)O)S(=O)(=O)/C=C/c1ccccc1	-1.1%	-5.0%
Cc1ccc(Cl)cc1N1CCN(CCNC(=O)Nc2ccccc2Cl)CC1	-1.9%	-22.2%
CC(=O)Nc1ccc(NC(=O)C2(c3cccs3)CCOCC2)cc1	-2.3%	-6.1%
Oc1ccc(C=Nc2ccc(N3CCOCC3)cc2)c(O)c1	-7.4%	-10.5%
Cc1cccc(C(=O)N2CCC(N3CCN(Cc4ccc(F)cc4)C(=O)C3=O)CC2)c1	-20.3%	-4.5%
CC1CCCC(NC(=O)COC(=O)c2cc3ccccc3oc2=O)C1C (stereo not given)	i	-10.4%
CCOC(=O)Cn1nnnc1C(C(C)C)N(Cc1cc2c(C)cc(C)cc2[nH]c1=O)C1CCCC1 (stereo not given)	/	-16.3%
Cn1c2c(c(=O)n(C)c1=O)C(c1ccc(C(F)(F)F)cc1)CC(=O)N2 (stereo not given)	-22.5%	-14.2%
CC(C)COC(=O)N1CCCCC1c1cc(C(=O)NCc2ccc(F)cc2)no1 (stereo not given)	11.5%	-12.2%
Cc1cccc(NC(=O)NC2COc3ccccc3C2)c1C (stereo not given)	-7.5%	-13.4%
COc1ccc(C)cc1COC(=O)c1[nH]c(C)c(C(C)=O)c1C	-1.9%	-6.9%
Cc1cc(Br)cc(C)c1OCC(=O)Nc1ccc(S(=O)(=O)Nc2ncccn2)cc1	-16.0%	-20.7%
O=C(O)c1ccccc1C(=O)Nc1ccc(Br)c2cccnc12	-12.1%&-20.2%	-15.0%&-2.5%
COCc1cc(=O)[nH]c2cc(NC(=O)c3cccc(OC)c3)c(C)cc12	i	-4.8%
COc1ccc(NC(=O)c2oc3c(c2C)-c2nn(Cc4c(F)cccc4Cl)cc2CC3)c(OC)c1	-8.4%	-6.2%
O=C(C(=O)N1CCOCC1)c1cn(CCOc2ccccc2)c2ccccc12	i	-3.5%
CC(C)(C)C1CCc2c(sc3c2C(=O)NC(c2ccco2)N3)C1 (stereo not given)	-19.4%	-15.5%
CC(Sc1ccccc1)C(=O)N1CCN(S(=O)(=O)c2cccc(Br)c2)CC1 (stereo not given)	-12.8%	-14.6%
CC(=O)NCC(=O)N(C)C(C(=O)Nc1ccc2c(c1)OCCO2)c1ccc(C)cc1 (stereo not given)	-3.3%	0.8%
CCOC(=O)CSC1=C(C#N)C(c2sccc2C)C(C(C)=O)=C(C)N1 (stereo not given)	i	-10.9%
COCCN1C(=O)C(=O)/C(=C(/O)c2ccc(S(=O)(=O)N3CCCCC3)cc2)C1c1ccc(O)c(OC)c1 (stereo not given)	i[7.34 µM]	0.0%[7.34 µM]
COc1ccc(NC(=O)c2cnc(Nc3ccc(C)c(Cl)c3)c3ccccc23)c(OC)c1	-16.5%	-2.6%
Cc1ccccc1CN1CCN(c2ccc(Cl)cc2)CC1	?	6.8%
Cc1ccccc1CN1CCNC(=O)C1CC(=O)NC1CCCCCCC1 (stereo not given)	-20.6%	-18.8%
COc1ccc(NC(=O)CSCC(=O)Nc2sccc2C#N)cc1	-13.8%	0.5%
Cc1oc(C(=O)O)cc1CSCc1cc(C(=O)O)c(C)o1	/	-0.6%
Cc1c(Cl)cccc1-n1c(SCC(=O)NCc2cccs2)nnc1-c1ccncc1	/	?
CN1CCN(/N=C/c2ccc(-c3ccc([N+](=O)[O-])cc3Cl)o2)CC1	3.5%	21.5%
Cc1ccc(S(=O)(=O)N2[C@@H](c3ccccc3F)C(C(=O)O)=CC[C@H]2c2ccc(Cl)cc2)cc1	-2.8%	-16.2%
Cc1c(-c2ccn[nH]2)cc(NC(=O)c2ccc(Cl)cc2)c(=O)n1N	-4.2%	-3.7%
COc1cc(NC(=O)c2c(C)oc3ncnc(N4CCCCC4)c23)cc(OC)c1	-1.4%	-13.7%
CCc1ccc(-n2c(SCc3ccccc3F)nc3[nH]ncc3c2=O)cc1	i	-7.6%
C/C(=N\NC(=O)C(O)c1ccccc1)c1ccc(C)s1 (stereo not given)	i	-11.4%
CC(=O)Oc1ccc2c(=O)oc(-c3ccccc3)nc2c1	i	-3.8%
Cc1cccc(NC(=O)Nc2ccccc2)n1	i	-8.0%
CN(C)c1nc(N2CCOCC2)nc(N(c2ccccc2)c2ccccc2)n1	-1.1%	-25.7%

Later entries.
SMILES	VACV mCherry inh	Vaccinia Venus
COc1cc(Cl)c(C)cc1NC(=O)c1sc2nc3n(c(=O)c2c1C)CCCCC3	-1.9%	-14.6%
COCCn1c(SCC(=O)NCc2ccco2)nc2cccnc21	i	-12.1%
COc1ccc(-c2nc3c(=O)n(C)c(=O)nc-3n(C)n2)cc1	?	?
Cn1[nH]c(CSc2ccc(Cl)cc2)cc1=O	-22.8%	0.6%
CCOC(=O)C1CCN(C(=O)c2cc(S(=O)(=O)N3CCc4ccccc43)ccc2OC)CC1	-11.4%	-11.0%
CC1CCCCC1NC(=S)NC(=O)c1sc2ccccc2c1Cl (stereo not given)	i	-10.4%
CCc1ccc(NC(=O)Cn2c3[n+](c4c(F)c(F)ccc42)CCCCC3)cc1	-3.5%	-17.6%
CN(C)C(=O)c1cn(-c2ccccc2)nc1-c1cc2ccccc2oc1=O	-13.1%	-1.0%
Cc1ccc(NC(=O)CSc2nc3ccc(NC(=O)COc4ccc(C)cc4)cc3s2)cc1	?	?
Cc1cc(C)nc(Nc2nc(C(N)Cc3ccc(C(F)(F)F)cc3)cs2)n1 (stereo not given)	?	-30.0%
CC(C)(C)OC(=O)N(CCc1ccccc1)Cc1cccc(OCc2cccc(NC(=O)c3ccccc3)c2)c1	-9.2%	-16.7%
COc1ccc(NC(=O)CCCc2ccc(OC)c(C)c2)cc1	-7.0%	-16.2%
COc1ccc(N2C(=O)[C@@H]3C[C@H]2CN3Cc2cccn2-c2ccc(Cl)cn2)c(C)c1	-6.9%	0.3%
O=C(CSc1nc2c(c(=O)[nH]1)CCC2)Nc1cc(C(F)(F)F)ccc1Cl	4.6%	2.9%
COc1cc(OC)c(NC(=O)CC2SC(N)=NC2=O)cc1Cl (stereo not given)	i	1.7%
COc1cccc(Cn2c(=O)n(Cc3ccco3)c(=O)c3oc4ccccc4c32)c1	i	-7.7%
O=C1CCCc2[nH]c(-c3ccccc3)nc21	i	-11.6%
Cc1ccc(OCC(=O)Nc2cc(S(=O)(=O)N3CCOCC3)ccc2Cl)c([N+](=O)[O-])n1	-20.1%	-6.7%
Cc1noc(C)c1COc1ccccc1C(=O)N1CCN(S(=O)(=O)c2cccc(Cl)c2)CC1	i	-15.5%
O=C1c2ccccc2C(c2nnnn2-c2ccc3c(c2)OCCO3)N1Cc1cccnc1 (stereo not given)	-10.5%	-11.7%
COc1cc(OC)c(S(=O)(=O)NC(C)C)cc1S(=O)(=O)NC(C)C	-2.9%	-14.4%
CCOC(=O)c1ccccc1NC(=O)CSc1nc(N)cc(N)n1	-13.2%	1.7%
O=C(CSc1ncnc2ccccc12)Nc1ccc2c(c1)OCCO2	-20.8%	-25.1%
COc1ccc(-c2c(C)nn3c4c(cnc23)C(=O)CC(c2ccc(C)cc2)C4)cc1 (stereo not given)	-7.4%	-11.4%
CCN(CC(=O)Nc1ccc2c(c1)OCCO2)C(=O)/C=C/c1ccc(OC)c(OC)c1	-9.5%	-20.7%

No new results follow: 4 of the compounds above.
SMILES	VACV mCherry inh	Vaccinia Venus
CCc1ccc(Nc2n[n+](-c3ccccc3)c(-c3cc(OC)c(OC)cc3Br)s2)cc1	?	?
COc1ccc(CN2CCN(CCCc3ccccc3)C(CCO)C2)c(O)c1 (stereo not given)	?	-6.2%
Cc1nc(-c2ccc(Cl)cc2)sc1C1(C)CC(c2cccc([N+](=O)[O-])c2)=NO1 (stereo not given)	-8.4%	-8.0%
CCOc1ccc(CCNC(=O)c2cnc3c(-c4ccc(F)cc4)c(C)nn3c2C)cc1OCC	-15.0%	-17.1%

Assay outcomes as filed in PubChem BioAssay.
